A488 fluor – A488 region autofluorescence. compound autofluorescence, A488 spectral region, dye equivalency; stronger effect = higher value. max dye equivalency, M. AID 591. 59,000 compounds, 0.1% hits; active = above 10 nM dye equivalent; inconclusive = 1 to 10 nM; inactive = 1 nM or less; about half of its hits are not listed in these tables;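 note: highest value over a series up to 38 µM; compound alone in buffer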
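Readout is A488 dye-equivalent concentration, calibrated by a per-plate six-point Alexa 488 series. Compounds in 100 mM Tris buffer pH 8.0 were incubated 15 min at room temperature. Plates were imaged using 480 nm excitation/540 nm emission filters.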
TSHR ag – agonists of human thyroid stimulating hormone receptor. P16473. HEK293-CNG-TSHR cells (CNG channel as cAMP sensor), membrane potential dye, cAMP. Potency, µM (titrated, usually from 57.1 µM), for inactives: at the top dose activation, actives largely listed as activators. 73,000 compounds, 0.48% hits. AID 926; active = well fitted activation curve of enough size with the parental cells flat; inconclusive = any curve in the parental cells; inactive = parental cells flat and receptor cells flat or falling; note: potency is the fitted concentration of half-maximal effect; % of control where 0% means no effect; weak receptor curves with flat parental cells got no call and are not listed
Target sequence (P16473 whole entry, looked up): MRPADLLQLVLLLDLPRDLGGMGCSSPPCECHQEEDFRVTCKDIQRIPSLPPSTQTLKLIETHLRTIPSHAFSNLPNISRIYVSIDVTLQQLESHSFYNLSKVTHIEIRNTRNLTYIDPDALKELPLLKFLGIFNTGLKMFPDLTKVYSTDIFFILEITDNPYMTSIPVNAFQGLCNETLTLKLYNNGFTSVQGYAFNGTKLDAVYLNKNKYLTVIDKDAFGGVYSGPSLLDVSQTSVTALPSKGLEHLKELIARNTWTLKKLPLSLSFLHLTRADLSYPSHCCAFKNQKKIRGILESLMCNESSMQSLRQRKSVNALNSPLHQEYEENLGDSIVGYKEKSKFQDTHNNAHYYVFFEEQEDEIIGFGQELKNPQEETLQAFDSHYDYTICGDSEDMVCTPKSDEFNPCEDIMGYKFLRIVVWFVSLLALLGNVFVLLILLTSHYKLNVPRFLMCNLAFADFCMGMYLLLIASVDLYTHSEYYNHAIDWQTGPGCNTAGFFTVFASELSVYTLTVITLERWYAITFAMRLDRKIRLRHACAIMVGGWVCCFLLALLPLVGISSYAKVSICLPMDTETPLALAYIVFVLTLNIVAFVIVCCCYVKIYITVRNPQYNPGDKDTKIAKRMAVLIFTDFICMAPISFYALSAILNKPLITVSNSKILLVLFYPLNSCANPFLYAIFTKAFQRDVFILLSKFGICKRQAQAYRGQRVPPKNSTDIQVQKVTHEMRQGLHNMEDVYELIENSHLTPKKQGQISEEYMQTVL
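HEK 293 cells stably expressing TSHR and a cAMP-gated CNG channel; parental CNG-only cells as counterscreen. Cells preloaded 60 min with membrane potential dye plus 100 uM RO 20-1724, then compound 30 min; fluorescence read at 590 nm.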
AID923 – qHTS Assay for Allosteric/Competitive Inhibitors of Caspase-1: Spectroscopic Profiling in AFC Spectral Region. compound fluorescence, AFC spectral region (405/520 nm); almost no hit is shown here. Potency, µM (titrated, usually from 57.5 µM), for inactives: top-dose fluorescence increase, hits mostly activators. 75,000 compounds, 1.1% hits; active = well fitted activation curve with a large enough effect; inconclusive = small, poorly fitted or top-dose-only effect;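 note: potency is the fitted concentration of half-maximal effect; 0% is about no effect; scaled to a free AFC standard on each plate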
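Titrations up to 57 uM read every 20 sec for 3 min (405/520 nm) with 50 nM caspase 1 and 5 uM Ac-WEHD-AFC, pH 7.5 HEPES buffer. Fluorescence-vs-time intercept gave baseline, scaled against on-plate AFC standard.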
Resorufin autofl – compounds fluorescent in resorufin spectral region; Compound fluorescence, resorufin region 547/598 nm, buffer; stronger effect = higher value; max dye-equivalent concentration, M; 59,000 compounds, 0.04% hits; active = above 10 nM dye equivalent; inconclusive = 1 to 10 nM; inactive = 1 nM or less; a few of its hits are not listed in these tables; note: highest value over a series up to 38 µM
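Compounds in 100 mM Tris buffer, pH 8.0, incubated 15 min at room temperature, then read with 547 nm excitation and 598 nm emission filters. Fluorescence was converted to dye-equivalent concentration using an on-plate six-point resorufin standard curve.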
A647 fluor – A647 region autofluorescence; 59,000 tested, under 10 active; Compound fluorescence, A647 channel (570/671 nm), Tris buffer; max dye-equivalent concentration, M; active means above 1 µM dye equivalent; inconclusive means 0.1 to 1 µM; inactive means 0.1 µM or less;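 note: values scaled relative to a standard on each plate; highest value over a series up to 38 µM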
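Compounds pinned into 100 mM Tris pH 8.0, 15 min at room temperature, then read with 570 nm excitation/671 nm emission filters. Fluorescence normalized to an on-plate six-point Alexa 647 standard curve, giving dye-equivalent concentration per compound concentration.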
* = called active by the depositor; i = inactive; ? = inconclusive; / = no result given; [ ] = another dose, or the depositor's remark. This is a subset; count on the stated rates, not on these rows.

The line under a structure holds: A488 fluor	TSHR ag	AID923	Resorufin autofl	A647 fluor
O=C(C1=C(O)C(=O)N(CCN2CCOCC2)C1c1ccccn1)c1cccs1 (configuration not stated)
 : i	-1.1%	19.2%	i	4.8e-09
O=C(Nc1nncs1)c1c(F)c(F)c(F)c(F)c1F
 : i	0.7%	-0.6%	i	1e-09
CC(C)(C)c1nc(NCC2CCCO2)c2nnn(Cc3ccccc3)c2n1 (configuration not stated)
 : i	?	-2.1%	i	1e-09
CC(C)c1cc(NC(=O)CSc2nnc(-c3ccccc3F)n2C)on1
 : i	1.8%	0.1%	i	1.3e-09
Cc1nc2ccc(S(=O)(=O)NC(C(=O)NC3CCCC3)C(C)C)cc2s1 (configuration not stated)
 : /	12.8%	-1.1%	/	/
CC(C)Oc1ccc(C(=O)CCN2CCCCC2)cc1
 : i	/	/	i	4.73e-08
Cc1ccccc1P(=O)(CO)c1ccccc1C
 : /	7.4%	0.8%	/	/
Cc1ccc(-c2nn(C)c(=O)c3ccccc23)cc1CNS(C)(=O)=O
 : i	5.1%	-0.5%	i	3.73e-08
CCN(CC)S(=O)(=O)c1cccc(-c2nnc(SCC(=O)c3cc(C)n(C4CC4)c3C)o2)c1
 : i	29.4%	0.0%	i	4.6e-09
Cc1ccc(N2CC(C(=O)Nc3ccncc3)CC2=O)cc1 (configuration not stated)
 : i	1.1%	-0.6%	i	1e-09
Cc1cc2nc(NC3=NCN(Cc4ccc5c(c4)OCO5)CN3)nc(C)c2cc1C
 : i	4.4%	0.4%	i	1.02e-08
O=C(NCC1CCCO1)c1sc(=S)n2c1[nH]c(=O)c1ccc(C(=O)N3CCCCC3)cc12 (configuration not stated)
 : i	10.8%	1.7%	i	2.04e-08
Cc1cc(=O)oc2cc(OCc3nnc(-c4ccccc4Br)o3)ccc12
 : i	?	1.2%	i	6.5e-09
CC(C)OC(=O)NCCOC(=O)Nc1cccc(Cl)c1
 : i	?	-1.4%	i	2.17e-08
COC1(c2cc(-c3ccccc3)nc(N)n2)CCCCC1
 : /	27.4%[11.4 µM]	-2.1%	/	/
CCCCC(CC)C(=O)Nc1ccccc1C(=O)NC(C)C (configuration not stated)
 : i	12.6%	0.9%	i	3.18e-08
C=CCc1cccc2cc(C(=O)N3CCN(C(=O)OCC)CC3)c(=O)oc12
 : i	-4.1%	1.0%	i	2.97e-08
CC1=C(C(=O)NCc2ccc3c(c2)OCO3)C2(CCC(C)CC2)OC1=O (configuration not stated)
 : /	4.8%	2.7%	/	/
CCN(CC)C(=O)c1cc2sc3ccccc3c2s1
 : /	?	-2.1%	/	/
O=C(Nc1cccc(C(F)(F)F)c1)c1cccnc1
 : i	?	0.2%	i	1e-09
COc1ccc(O)c(C2NC(CC(C)C)(C(=O)O)C3C(=O)N(Cc4ccccc4)C(=O)C23)c1 (configuration not stated)
 : i	0.1%	0.7%	i	2.79e-08
Cc1ccc(NC(=O)C2C3C=CC4(CN(Cc5cccnc5)C(=O)C24)O3)cc1F (configuration not stated)
 : /	1.0%	2.2%	/	/
NC(=O)C(=O)O
 : i	-3.9%	1.7%	i	1e-09
CSCC[C@H](C=O)NC(=O)[C@H](CC(C)C)NC(=O)[C@H](CC(C)C)NC(C)=O
 : /	2.9%	-1.6%	/	/
CNc1nnc(CSc2nc3ccccc3s2)s1
 : i	3.6%	-1.4%	i	4.04e-08
CC1CCc2c(sc3ncnc(N4CCOCC4)c23)C1 (configuration not stated)
 : /	?	2.8%	/	/
CCCNC(=O)CN(C1CCCCC1)S(C)(=O)=O
 : i	-0.6%	1.1%	i	1e-09
COc1ccccc1NC(=O)CSc1nnc(C2CCCCC2)o1
 : i	?	1.0%	i	4.2e-09
CC1(CCc2ccc3c(c2)OCO3)NC(=O)c2ccccc2N1 (configuration not stated)
 : i	4.3%	10.8%	i	1.9e-09
COCCn1c(C)cc(C(=O)COC(=O)CCc2ccc(S(=O)(=O)N3CCOCC3)cc2)c1C
 : i	0.7%	-1.8%	i	3.5e-09
O=C(CCc1ccccc1)Nc1cccc(-c2nnc(-c3ccco3)o2)c1
 : i	/	2.5%	i	7e-09
CC(=O)COC(=O)c1cccc(N2C(=O)C3C4C=CC(C4)C3C2=O)c1 (configuration not stated)
 : /	1.1%	-0.8%	/	/
Nc1nnc(CC2=CCCCC2)s1
 : i	/	/	i	1.3e-09
CC1(C)CC2CC(C)(CN2CC(=O)C(C#N)c2ccccc2)C1 (configuration not stated)
 : i	-1.3%	1.6%	i	1.04e-08
CCOc1ccc(-n2cc(C(=O)N3CCC(C)CC3)c3cc(OC)c(OC)cc3c2=O)cc1
 : i	8.7%	3.2%	i	3.5e-09
CCCCn1c2nc3ccccc3nc2c2c(=O)n(CCC(C)C)cnc21
 : i	10.8%	2.8%	i	4.4e-09
COc1ccc(S(=O)(=O)Cc2ccc(C(=O)N3CCN(c4cc(Cl)ccc4C)CC3)o2)cc1
 : /	?	0.5%	/	/
CC1(C)CC(=O)c2cc(OCC(=O)NCCCN3CCN(c4ccc(F)cc4)CC3)ccc2O1
 : i	18.9%	6.8%	i	1e-09
C=CCNc1sc(C(=O)C2CC2)c(N)c1C#N
 : i	/	/	i	6.57e-08
CCOC(=O)c1cnc2c(C(=O)OC)cccc2c1NCc1ccco1
 : i	11.4%	5.9%	i	3.6e-09
O=C(NC1CCCC1)c1sc(=S)n2c1[nH]c(=O)c1ccccc12
 : i	?	0.2%	i	1.7e-08
CCOC(=O)c1ccc(-n2c(N)c(C(=O)NCc3ccco3)sc2=S)cc1
 : i	-2.4%	2.2%	i	5.9e-09
Cc1ccc(Nc2nc(N)nc(CN3CCCCCC3)n2)c(C)c1
 : i	12.1%	-1.6%	i	7.37e-08
CCCC1=C(C(=O)OCC)C(c2cc(Cl)cc(OC)c2OCC(=O)OCC)NC(=O)N1 (configuration not stated)
 : i	/	1.3%	i	1e-09
Cc1cc(C)n(-c2nc3c(c(=O)[nH]c(=O)n3C)n2CC(C)C)n1
 : i	-3.4%	-0.7%	i	3e-09
C=C(C)COc1ccc(-c2nc(N)ncc2-c2ccc(OC)cc2)c(O)c1
 : i	?	1.7%	i	6.6e-09
CCC(Sc1nc(-c2ccccc2)cc(=O)[nH]1)C(=O)O (configuration not stated)
 : /	-1.7%	2.8%	/	/
CC1(C)CC(=O)C(C=N)=C(O)C1
 : i	/	/	i	1e-09
CCOc1ncccc1C(=O)OCC(=O)N1CC(=O)Nc2ccccc21
 : i	-3.5%	-3.3%	i	3.4e-09
N#C/C(C(=O)c1ccccc1)=C1/SC=C(N)N1c1ccccc1
 : i	-5.1%	4.1%	i	4.6e-08
CCc1cc2c(N3CCN(c4nnc(CC)s4)CC3)ncnc2s1
 : i	8.4%	0.9%	i	1e-09
CC(=O)S[C@H]1CC2=CC(=O)CC[C@@]2(C)[C@H]2CC[C@@]3(C)[C@H](CC[C@]34CCC(=O)O4)[C@@H]12
 : ?	-16.1%[25.6 µM]	-2.7%[25.7 µM]	?	4.44e-08
Cc1ccc(CCNC(=O)C2CCCN(S(=O)(=O)c3cnc[nH]3)C2)cc1 (configuration not stated)
 : /	?	-1.8%	/	/
O=C1c2ccccc2C(=O)N1c1n[nH]c(CCc2ccccc2)n1
 : i	3.4%	-0.5%	i	1.03e-08
COc1ccc2c3c(c(=O)oc2c1OCC(=O)C(C)(C)C)CCCC3
 : i	?	-0.1%	i	1e-09
CN1CCN(C(=O)C2CCN(S(=O)(=O)c3cnc[nH]3)CC2)CC1
 : i	2.5%	0.1%	i	1.07e-08
CC1(C)C=C(c2ccc(O)cc2)CC(C)(C)N1
 : /	0.3%	0.0%	/	/
C(=N/n1c2ccccc2c2ccccc21)/c1ccco1
 : /	28.1%	0.2%	/	/
O=C1CCCc2nc(N3CCN(Cc4ccccc4)CC3)ncc21
 : i	23.2%	-0.7%	i	1e-09
O=C(O)c1cccc(N2C(=O)C3CC=C(Cl)CC3C2=O)c1 (configuration not stated)
 : /	-2.4%	2.3%	/	/

The results go on.
The line under a structure holds: A488 fluor	TSHR ag	AID923	Resorufin autofl	A647 fluor
Cc1csc(NC(=O)CSc2nnc(-c3ccncc3)o2)n1
 : i	-6.3%	-0.9%	i	1.17e-08
Cc1csc(SCC(=O)Nc2ccccn2)n1
 : i	7.9%	-0.5%	i	7.6e-09
COc1ccc(-n2nnc3c(=O)n(CC(=O)N4CCC(C)CC4)cnc32)cc1
 : /	-2.0%[11.4 µM]	-3.5%	/	/
c1ccc(N2CCN(c3nnnn3-c3ccccc3)CC2)cc1
 : /	27.4%	3.6%	/	/
CCOC(=O)N1CCC(NC(=O)C2CCC(Cn3c(=O)[nH]c4ccccc4c3=O)CC2)CC1 (configuration not stated)
 : i	?	1.3%	i	1e-09
CSCCC(NC(=O)C1CCC(C)CC1)C(=O)N1CCN(c2ccccn2)CC1 (configuration not stated)
 : i	1.4%[11.4 µM]	-0.8%	i	3.88e-08
CCC(CC)C(=O)Nc1cccc(C(=O)N2CCCCCC2)c1
 : i	?	-2.1%	i	3.52e-08
Cc1csc(N(C(=O)c2cccc(S(=O)(=O)N(C)C)c2)c2ccccc2)n1
 : i	?	-0.2%	i	2.16e-08
O=C(NC1CCCCC1)C(c1ccc(F)cc1)N(Cc1ccco1)C(=O)Cn1nnc2ccccc21 (configuration not stated)
 : i	?	-2.1%	i	3.38e-08
COc1cccc(Oc2cncnc2-c2ccc(OC)cc2O)c1
 : i	4.0%	0.3%	i	5.4e-09
Cc1ccccc1-n1c(SCc2ccccn2)nc2n[nH]c(C)c2c1=N
 : i	13.9%[11.4 µM]	-0.6%	i	1.98e-08
Cc1ccc(NC(=O)CCC(C(=O)O)N2C(=O)c3ccccc3C2=O)cc1 (configuration not stated)
 : i	3.0%	2.1%	i	4.57e-08
COC(=O)c1ccccc1OCC(=O)NC1CCCCC1
 : i	/	-0.2%	i	1e-09
COC(=O)c1cn(CC(=O)NC2CCCCC2)c2ccccc12
 : i	9.7%	-1.6%	i	2.58e-08
CCCCNC(=O)c1c(N)n(/N=C/c2ccccn2)c2nc3ccccc3nc12
 : i	11.6%	0.2%	i	1.71e-08
CON(C)c1nc(Oc2ccc(=O)[nH]n2)nc(N(C)C)n1
 : i	4.1%	6.0%	i	1.1e-09
Cc1occc1-c1nnc(SCC(=O)Nc2nccs2)n1CCc1ccccc1
 : i	?	-2.3%	i	6.7e-09
CC(=O)C1C(c2ccncc2)NC(=O)NC1(O)C(F)(F)F (configuration not stated)
 : i	1.7%	3.3%	i	4.2e-09
CCNC(=O)CN(c1ccc(OC)c(OC)c1)S(=O)(=O)c1ccccc1
 : i	-3.9%	-0.1%	i	1e-09
CCOC(=O)COc1ccc(Oc2nc(C)cc(OC)n2)nn1
 : i	/	/	i	1.5e-09
COC(=O)c1[nH]c2ccc(C)cc2c1NC(=O)CN1CCCCC1C (configuration not stated)
 : i	8.6%	-2.1%	i	2.6e-09
Cc1ccc2c(c1)CCCN2C(=O)Nc1ccc2c(c1)OCO2
 : i	3.2%	3.7%	i	3.4e-08
Clc1ccccc1C1CC(c2ccccc2)Nc2ncnn21 (configuration not stated)
 : /	14.3%	-2.5%	/	/
Oc1cccc(Nc2ccccc2)c1
 : /	?	0.8%	/	/
O=C(Sc1nnc(-c2ccccc2)o1)N1c2ccccc2Sc2ccccc21
 : /	-21.4%[11.4 µM]	0.3%	/	/
CCOc1ccccc1-n1nnnc1SCc1nc2ccccc2s1
 : i	?	10.4%	i	1.46e-08

High-throughput results deposited in PubChem BioAssay by National Center for Advancing Translational Sciences (NCATS).
